# NPYLR7 ag: agonists of mosquito NPYLR7 receptor, primary screen, cell-based, Aedes aegypti, calcium fluorescence, mosquito biting behavior; Aedes aegypti neuropeptide Y-like receptor 7 (NPYLR7); HEK293T NPYLR7/Galpha15, GCaMP6s calcium fluorescence; activation, % at 10 µM; 270,000 tested, 0.15% active; AID 1259423, 2018; in the data active = activation above about 40%;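 note: 0% = vehicle and 100% = reference agonist at the receptor; some compounds past the cut are filed as inactive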
# NPYLR7 ag max-min: second read-out of NPYLR7 ag, no call of its own (marks repeat the call); activation, %; measured here: Max-Min RFU normalised activation; some inactives read as strong as hits;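 span of the calcium signal over five minutes; 0% = vehicle and 100% = native peptide agonist; compound fluorescence can raise it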
# * hit, by the source's call; & = joins results of further samples. The list is partial; the hit share may differ from the screen's.
# Below each compound: NPYLR7 ag max-min	NPYLR7 ag
- Cc1ccc(NC(=O)N2CCSC2c2ccc3c(c2)OCCO3)c(C)c1 (stereo not drawn)
→ -1.8	-3.9
- COc1cccc(-c2nnn(CCOc3ccccc3F)n2)c1
→ 7.4	10.2
- Cc1ccccc1C(c1ncccc1C)N(C)C(=O)C1CCN(CCOc2ccc3ccccc3c2)CC1 (stereo not drawn)
→ 9.8	15.8
- Cc1ccc(-c2cc(-c3nnco3)c3ccccc3n2)cc1
→ -3.7	-4.6
- CCc1c(CN2CC(C)CC(C)C2)csc1C (stereo not drawn)
→ 0.1	-0.9
- Cc1cc(C)n(CCNS(=O)(=O)c2ccc(C)c(C)c2)n1
→ 0.3	3.1
- Cc1c[n+]2ccsc2n1CCCS(=O)(=O)O
→ -15.3	-10.9
- CC1Cc2nc(SCC(=O)c3ccccc3)n(-c3ccccc3)c(=O)c2S1 (stereo not drawn)
→ -6.6	-4.3
- CCOC(=O)c1c(N)nn(C(=O)CC)c1-c1ccccc1
→ -23.1	-16.2
- Cc1cc(C)cc(Cn2c(C)c(C(=O)N(C)Cc3ccc(F)cc3)sc2=O)c1
→ -8.6	-8.1
- Cc1ccc2[nH]nc(C(=O)N3CCCC(N4CCN(c5ccccc5C)CC4)C3)c2c1 (stereo not drawn)
→ 0.2	1.7
- Cc1cccc(COn2cccc(C(=O)Nc3cccc(C)c3C)c2=O)c1
→ 14.6	2.6
- COc1cccc(C2CCCCN2S(=O)(=O)c2cnn(C)c2C)c1 (stereo not drawn)
→ -0.8	1.3
- CO[C@@H]1CN(c2ccccc2)S(=O)(=O)[C@@]12CCN(CC1CC1)C2
→ 2.2	-4.2
- O=S(=O)(c1ccccc1OC(F)(F)F)N1CCC(c2cn(Cc3ccc(C(F)(F)F)cc3)c3ccccc23)CC1
→ 13.0	28.4
- O=C(NC1CCC(NC(=O)[C@H]2CCCN2C(=O)c2ccc(F)cc2)CC1)c1ccccc1 (stereo partly drawn)
→ 19.1	21.4
- CCN(CC)Cn1c(O)c(N=NC(=O)c2ccncc2)c2ccccc21
→ 7.8	8.7
- Cc1cc(C(C)(C)C)ccc1OCC(O)Cn1c(=O)ccn(C)c1=O (stereo not drawn)
→ 10.5	3.5
- CCC1=NOC(Cn2cnc(-c3ccccc3)c2-c2cc(C)[nH]n2)C1 (stereo not drawn)
→ 15.3	1.0
- Cc1cc(Cl)ccc1N=Cc1nc(-c2ccccc2Br)oc1O
→ -7.6	-3.4
- CCC(O)C1CCCCN1CCS(=O)(=O)C(C)C (stereo not drawn)
→ 1.1	0.7
- CCn1nnc2cc(C(=O)OCC(=O)Nc3ccccc3F)ccc21
→ -6.5	0.1
- O=c1nc2n(nc1-c1ccccc1)C1(CCCCC1)Nc1ccccc1-2
→ 7.7	9.9
- O=C(NC1CCN2CCCCC12)c1cccc2c3c([nH]c12)CCCC3 (stereo not drawn)
→ 4.9	6.3
- COc1ccc(NC(=O)CSc2nc3c([nH]c4ccccc43)c(=O)n2C)c(OC)c1
→ 28.0	1.3
- CN(C)c1ccc(NC(=O)c2ccccc2Cl)cc1CN(Cc1ccco1)C(=O)c1ccccc1Cl
→ -28.5	-31.8
- CN[C@@H]1[C@H](O[C@H]2[C@H](O[C@@H]3[C@@H](O)[C@H](O)[C@@H](N=C(N)N)[C@H](O)[C@H]3N=C(N)N)O[C@@H](C)[C@]2(O)CO)O[C@@H](CO)[C@H](O)[C@H]1O
→ -4.2	-2.4
- N#Cc1cccc(OC2CC3CCC(C2)N3C(=O)c2ccc(CSc3nc(-c4ccccc4)cs3)cc2)c1 (stereo not drawn)
→ -9.8	-10.2
- Cc1cc(C)nc(NC(=O)c2c(-c3ccccc3Cl)noc2C)c1
→ -0.6	3.1
- Cc1nn(C)c(C)c1-c1ccnc(N(C)Cc2cc(-c3ccccn3)no2)n1
→ 2.2	-0.2

# Four entries picked at random from the list so far, as already listed:
# Below each compound: NPYLR7 ag max-min	NPYLR7 ag
- N#Cc1cccc(OC2CC3CCC(C2)N3C(=O)c2ccc(CSc3nc(-c4ccccc4)cs3)cc2)c1 (stereo not drawn)
→ -9.8	-10.2
- CCN(CC)Cn1c(O)c(N=NC(=O)c2ccncc2)c2ccccc21
→ 7.8	8.7
- CCC(O)C1CCCCN1CCS(=O)(=O)C(C)C (stereo not drawn)
→ 1.1	0.7
- O=C(NC1CCC(NC(=O)[C@H]2CCCN2C(=O)c2ccc(F)cc2)CC1)c1ccccc1 (stereo partly drawn)
→ 19.1	21.4

# (cont.)
# Below each compound: NPYLR7 ag max-min	NPYLR7 ag
- CCCCCN(C(=O)/C=C/c1ccc([N+](=O)[O-])cc1)C(C)c1nc2ccccc2c(=O)n1-c1ccc(OCC)cc1 (stereo not drawn)
→ 23.7	27.8
- CC(c1nc(N)nc(N(C)C)n1)N1CCN(c2ccc(F)cc2)CC1 (stereo not drawn)
→ 3.6	9.0
- O=C(CSc1nc2ccccc2[nH]1)N=Nc1c(O)[nH]c2ccccc12
→ 7.8	10.0
- CCOC(=O)CCC(=O)N1CCN(c2nc(CCc3ccccc3)nc3sc(C)c(C)c23)CC1
→ -11.5	-13.9
- Cc1cc(C)n(CC(C)NCc2nc(Cc3ccccc3F)no2)n1 (stereo not drawn)
→ -1.4	3.9
- O=C1NC(c2ccccc2F)C(C(=O)C(F)(F)F)C(O)(c2ccccc2)N1 (stereo not drawn)
→ 6.5&-8.6	5.2&-4.0
- O=C(NCCOc1ccc2nnc(-c3cccc(F)c3)n2n1)c1cc(-c2ccccc2)n[nH]1
→ 27.2	-0.1
- O=c1[nH]c(/C=C/c2cccs2)nc2ccc(Br)cc12
→ 5.9	6.4
- CC(C)Oc1ccc2c(=O)c(-c3ccc4c(c3)OCCO4)c(C(F)(F)F)oc2c1
→ -14.3	-17.5
- CCCCN(C)C(=O)c1sc(=O)n(CCc2ccccc2)c1C
→ 0.5	-3.8
- Cc1c(C(=O)NCc2ccncc2)cnn1-c1ccc(Cl)cc1
→ 7.3	14.1
- COc1ccc(C(=O)Nc2ccccc2OC)cc1F
→ -4.0	1.7
- O=C(NCc1ccco1)c1cccc(S(=O)(=O)N2CCOCC2)c1
→ -22.4	-12.4
- CCOC(=O)COn1c(=O)c(-c2ccc(Oc3ccccc3)cc2)[n+]([O-])c2ccccc21
→ -9.7	-3.1
- CC(C)(C)c1ccc(/C=N\Nc2ccc3c(Cl)cc(Cl)c(O)c3n2)cc1
→ -9.4	-5.4
- O=C(CN1CCN(C(=O)C2CC2c2cccc(Cl)c2)CC1)N1CCCCCC1 (stereo not drawn)
→ 2.2	8.7
- C=CCNc1nnc(C(C)(C)C)c(=O)[nH]1
→ 6.1	10.8
- COc1ccccc1CCCNC1CCSC1 (stereo not drawn)
→ 14.2	10.9
- CN1C(=O)CC(C(=O)Nc2cccc(Cl)c2)SC1=Nc1ccccc1 (stereo not drawn)
→ -0.8	1.3
- Cc1cc2cc(CNC(=S)Nc3ccc(F)cc3)ccc2n1C
→ 5.0	1.5
- CCC1=NN(C(=O)c2ccccc2Cl)C(O)(C(F)(F)F)C1 (stereo not drawn)
→ 5.5	6.8
- COc1ccc(CN2CCN(Cc3nc(C(C)C)cs3)CC2CCO)c(C)c1C (stereo not drawn)
→ -6.1	-4.3
- O=C(NC1CCCC1)c1c(O)c2c([nH]c1=O)CCCC2
→ 0.4	6.5
- COCc1cc(C)nc(OCC(=O)N/N=C\c2ccccc2OC)c1C#N
→ 1.2	3.8
- CC(=O)N1CCN(C(=O)c2c(C(C)C)nn(-c3ccc(F)cc3)c2C(C)C)CC1
→ 6.6	-1.7
- Cc1sc2ncnc(N=Nc3c(O)[nH]c4ccc(C(C)C)cc34)c2c1C
→ 2.4	4.1
- COC(=O)C(c1ccccc1)C1C=CC(NC(=O)c2ccc(SC(F)(F)F)cc2)C1 (stereo not drawn)
→ 7.0	8.6
- Cc1cc(C)n(-c2cc(C(C)(C)C)nc3c(-c4ccccc4)cnn23)n1
→ 5.9	-0.1
- Cc1ccc(F)cc1NC(=O)C(C(C)C)n1nnc(-c2ccccc2)n1 (stereo not drawn)
→ 12.8	-0.5
- COCCN1C(=O)C(=O)C(=C(O)c2ccc(OC)cc2)C1c1ccc([N+](=O)[O-])cc1 (stereo not drawn)
→ 16.6	11.1
- Cc1nnc(S(=O)(=O)CCN2CCOC2=O)n1CCc1cccs1
→ 1.7	2.7
- COCCN(CCC(=O)NCCc1ccc(Cl)cc1Cl)c1nc(Cc2ccc(F)cc2)ns1
→ 7.3	6.4
- COc1ccc(NC(=O)Cn2ccnc2-c2ccnc(N3CCSCC3)c2)cc1OC
→ -8.3	-8.4
- COc1cn(CC(=O)N2CCCc3ccccc32)c(CSc2nc(C)cs2)cc1=O
→ -11.4	-7.4
- Cc1cc(C(=O)N2CCC2(C)C(=O)NCC(C)(C)C)nn1C (stereo not drawn)
→ 2.1	3.5
- COCCCN(CC(=O)N(CCc1c[nH]c2ccccc12)Cc1ccc(F)cc1)C(=O)c1ccccc1OC
→ 7.9	-4.4
- O=C(CN(C1CC1)C1CCCCC1C1CCCCC1)N1CCC1 (stereo not drawn)
→ -0.7	-1.1
- CCOc1ncccc1CN1CCCC(C(=O)NCc2ccncc2)C1 (stereo not drawn)
→ -5.1	-2.1
- COc1cccc(C(=O)N(C)CC(=O)Nc2ccc(F)cc2)c1
→ -2.2	-2.4
- Oc1cccc2cnccc12
→ 6.0	0.8
- CC(=O)N1N=C(Cc2ccccc2)OC1C(=O)Nc1ccc(C(C)(C)C)cc1 (stereo not drawn)
→ -0.2	5.5
- O=C(COc1ccccc1)N(CC(=O)N1CCc2sccc2C1c1ccc(Cl)cc1Cl)Cc1ccco1 (stereo not drawn)
→ -12.0	-7.0
- Cc1cccc(C(=O)NCCNc2ncccn2)c1C
→ -5.6	-4.0
- CN1CCN(n2c3c(c(SCc4cccc([N+](=O)[O-])c4)nc2=O)CCCC3)CC1
→ -11.6	-4.9
- NCC1CN(Cc2cccn2S(=O)(=O)c2ccccc2)CCO1 (stereo not drawn)
→ -2.0	0.7
- Cc1cc(C(=O)Nc2ccc(F)cc2-c2ccc(F)cc2)n(C)n1
→ 2.5	7.1
- Nc1cccnc1S(=O)(=O)c1cccc(C(F)(F)F)c1
→ -8.4	-5.9
- COCCNC(=O)C(NC(=O)c1cccc(OC)c1)C1CCN(S(=O)(=O)c2ccc(Cl)cc2)CC1 (stereo not drawn)
→ 9.2	10.5
- O=C(NCc1nnc2n1CCCCC2)c1ccccc1C(=O)c1ccc(Cl)cc1
→ 19.9	0.0
- Cc1cc2cc(CNC(=O)CCc3ccccc3)ccc2n1C
→ 7.2	8.5
- CC1Cc2cc(-c3c(-c4ccccc4)ncn3CCCO)ccc2O1 (stereo not drawn)
→ 1.1	4.2
- C=CCn1cc(C(=O)Nc2ccc(C)c(C)c2)c2nn(-c3ccccc3)c(=O)c-2c1
→ 6.3	8.0
- Cc1ccnc(C(NC(=O)C(=O)N2CCc3ccccc32)C2CC2)c1 (stereo not drawn)
→ 8.6	9.5
- COC(=O)c1cccc(C(=O)N2CCCC(Nc3ccc(C)c(C)c3)C2)c1 (stereo not drawn)
→ 3.6	3.6
- CS(=O)(=O)N1CCC(Oc2cccc(C(=O)NCCCc3ccccc3)c2)CC1
→ 4.0	3.2
- COc1ccc(-c2c(C)nn(-c3ccccc3)c2C)c(C(=O)N2CCN(CCCC(c3ccc(F)cc3)c3ccc(F)cc3)CC2)c1
→ -9.8	-3.4
- O=C(COC(=O)c1ccc(NC(=O)c2ccccc2)cc1)c1cccc([N+](=O)[O-])c1
→ -8.6	-3.5
- CCCOC(=O)C1=C(C)NC(=O)NC1c1ccc(N(C)C)cc1 (stereo not drawn)
→ -2.0	-1.1
- Cn1ccnc1C(NC(=O)Cc1ccc(Cl)cc1Cl)c1ccccc1F (stereo not drawn)
→ 0.6	-0.8
- CC(C)CNC(=O)NC(=O)C(C)N1CCCN(c2ncccn2)CC1 (stereo not drawn)
→ -0.7	-0.3

# The results go on:
# Below each compound: NPYLR7 ag max-min	NPYLR7 ag
- CC(C)(C)c1ncc2c(n1)CN(C(=O)C1CCS(=O)(=O)CC1)C2
→ 8.1	8.9
- CCC(=O)NC(c1ccccc1)c1ccc2nc[nH]c2c1 (stereo not drawn)
→ -2.2	-1.0
- CC(C)S(=O)(=O)N1CCC(Cc2nn(C)c(=O)n2-c2ccccc2)CC1
→ 2.4	14.8
- CN(C1CCS(=O)(=O)C1)S(=O)(=O)c1ccc2ccccc2c1 (stereo not drawn)
→ -4.3	-2.7
- O=C(CCC(=O)N1CCC2(CC1)CC(=O)c1ccccc1O2)c1ccc(CCCC2CC2)cc1
→ -13.5	-10.2
- COCCN(Cc1cccc(OS(=O)(=O)c2ccc(F)cc2)c1)C(=O)c1c(OC)cccc1OC
→ -10.9	-10.9
- O=C(NCC1CN(Cc2ccccc2)CCO1)c1ccc2nc[nH]c2c1 (stereo not drawn)
→ 0.9	-0.2
- Cc1ccc(S(=O)(=O)Nc2cc(-c3ccco3)nn2C2CCS(=O)(=O)C2)cc1 (stereo not drawn)
→ -1.7	-0.5
- CCc1nc2ccc(C(=O)NCCN(C)C)cn2c1N(C)Cc1cccs1
→ -2.3	7.7
- Cc1ccc(-c2nc(CC(=O)Nc3cn(C)c(=O)cc3C)cs2)cc1
→ -5.2	-4.6
- COc1ccccc1NC(=O)C1CC(=O)N(C)C(=Nc2ccc3c(c2)OCO3)S1 (stereo not drawn)
→ -12.5	-7.8
- CCn1c(=O)n(CC(O)c2ccc3c(c2)OCCO3)c2ccccc21 (stereo not drawn)
→ -5.2	-5.5
- NCC1CN(C(=O)CCCN2Cc3ccccc3C2)CCO1 (stereo not drawn)
→ 4.1	2.8
- COc1ccc(CC(=O)N(CC(=O)N2CCc3sccc3C2c2ccc(Cl)cc2)CC(C)C)cc1 (stereo not drawn)
→ -6.2	-7.0
- COc1ccc(NC2CC(=O)N(c3ccc(F)cc3)C2=O)cc1 (stereo not drawn)
→ -10.2	-6.2
- CCOC(=O)C1CCCN(C(=O)c2nn(-c3ccccc3F)c(=O)n(Cc3cccc(C)c3)c2=O)C1 (stereo not drawn)
→ 11.8	7.6
- CC1=NN(c2cccc(C(=O)O)c2)C(=O)/C1=C\c1cccs1
→ -10.8	-4.9

# Screens from PubChem BioAssay.
